# Screening results as filed in PubChem.
# MT1-MMP reporter = MT1-MMP gene expression reporter suppression – cell-based, luciferase reporter, luminescence (AID 618); MT1-MMP promoter luciferase reporter cells, luminescence; calls from a first round at 10 µM; hits with a dose series show EC50 in µM; 87,000 compounds, 0.62% hits;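 active means over half of the reporter light lost at 10 µM or EC50 under 50 µM; inactive means the rest and hits that failed the dose series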;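 further: actives suppress MT1-MMP promoter-driven transcription so potencies describe inhibitors; HT1080 fibrosarcoma cells; overnight exposure; toxic or luciferase-blocking compounds were not removed from the actives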
# WNV NS2B-NS3 inh = WNV NS2B-NS3 proteinase inhibition | AID 577 | P06935 | 65,000 compounds, 0.18% hits | z-score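 (tested at a level between 10 and 100 µM)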 | WNV NS2B-NS3 protease, fluorogenic substrate Ex360/Em465; hits give low values;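 active means z-score at -3 or under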;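 further: score is relative to mean and spread of the compound wells of a plate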
# Target sequence (P06935 1371-1501 limits assumed): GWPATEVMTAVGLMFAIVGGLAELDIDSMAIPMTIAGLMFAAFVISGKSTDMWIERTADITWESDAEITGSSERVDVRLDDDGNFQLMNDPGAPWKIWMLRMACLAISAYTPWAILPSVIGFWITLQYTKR
# Target sequence (P06935 1502-1679 limits assumed): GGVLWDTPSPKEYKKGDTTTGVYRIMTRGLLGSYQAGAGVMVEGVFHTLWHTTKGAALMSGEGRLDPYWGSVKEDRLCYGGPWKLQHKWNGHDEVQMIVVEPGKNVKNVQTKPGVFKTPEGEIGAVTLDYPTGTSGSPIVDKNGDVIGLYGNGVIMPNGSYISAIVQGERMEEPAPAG
# Hsc70 = small molecules displacing fluorescent ligand from Hsc70 – biochemical, fluorescence polarization, primary screen (AID 568); Hsc70 fluorescence polarization, probe displacement; higher % means a stronger effect; strong numbers were not always called active; displacement, % at 20 µM; hits with a dose series show IC50 in µM; 83,000 tested, under 10 active;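 active means displacement above 50% without optical interference and an IC50 on retest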;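 further: ATPase domain with a fluorescein-tagged ATP probe; 0% = vehicle and 100% = excess ADP; read after one hour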
# Starred values were filed as active, the others as inactive; i = inactive; . = not tested or not shown.
structure | MT1-MMP reporter | WNV NS2B-NS3 inh | Hsc70
O=c1[nH]c2ccc(Cl)cc2c(-c2ccccc2)c1N1CCOCC1 | i | -0.89 | -1.2%
C=CCn1c(SCc2cc(=O)n3ccsc3n2)nc2scc(C3CC3)c2c1=O | i | 0.58 | -9.1%
Cc1ccc2cc(CN(C(=O)C3CCCO3)C3CCCCC3)c(=O)[nH]c2c1 (stereo unspecified) | i | 0.09 | -2.1%
CC(C)(C)OC(=O)NCCCCCc1nnc(SCC(=O)Nc2cccc(Cl)c2)o1 | i | -0.38 | -5.8%
O=C(OCc1ccccn1)c1ccc(COc2ccccc2Cl)o1 | i | . | 0.8%
CCCCC1=NN(C(=O)c2cocc2C)C(O)(C(F)(F)F)C1 (stereo unspecified) | i | . | 1.7%
Fc1ccc(-c2nnc(CN3CCC(c4nc5ccccc5s4)CC3)o2)cc1 | i | -0.08 | -8.5%
Cc1sc2ncnc(N3CCC(C)CC3)c2c1C | i | . | -1.5%
CCC(=O)NCCc1cc2ccc(C)c(C)c2[nH]c1=O | i | -1.4 | 2.2%
O=S(=O)(NC1CCCCC1)c1ccc(S(=O)(=O)N2CCN3CCCC3C2)cc1 (stereo unspecified) | i | -1.4 | 8.8%
CCN(CC)c1ccc(NC(=O)c2cccnc2)c(C)c1 | i | . | 4.1%
O=C(Nc1ccc(S(=O)(=O)N2CCOCC2)cc1)c1cccs1 | i | -1.2 | -0.5%
Clc1ccc(OCCn2ccnc2)c2ccccc12 | i | 0.01 | -0.3%
CCc1cccc(NC(=O)CN(C)S(=O)(=O)c2cccc3nsnc23)c1 | i | -0.49 | -1.9%
N#Cc1c(N)sc2c1CCN(CCc1ccccc1)C2 | i | . | 5.6%
CC1=C(C(=O)OC2CCCCC2)C(c2ccc(C)o2)C2=C(CC(C)(C)CC2=O)N1 (stereo unspecified) | i | 0.74 | 1.6%
O=C(Nc1ccc2c(c1)OCCO2)C1CCN(C(=O)c2ccc(F)cc2)CC1 | i | 0.08 | 2.2%
CCN1CCN(CC(O)COCc2ccccc2)CC1 (stereo unspecified) | i | -0.59 | 7.8%
O=C(Nc1ccc2nc(-c3cccnc3)[nH]c2c1)c1ccccc1F | i | . | 5.4%
CCOC(=O)c1cnc2c(C#N)c(C)nn2c1C | i | 0.78 | -4.8%
Cc1cccc(OCCC(=O)NCC(c2ccccc2)N(C)C)c1 (stereo unspecified) | i | -0.51 | 2.8%
Cc1ccc(-n2ccc(=O)c(C(=O)O)n2)cc1 | i | . | 6.5%
Nc1nc(SCC(=O)NCc2ccco2)[nH]c(=O)c1-c1ccccc1 | i | -0.95 | -1.5%
CSC1=C(C#N)C(c2ccccc2C)C(C#N)=C(N)N1 (stereo unspecified) | i | -0.41 | -12%
COc1ccc(C2(C(=O)NCCN3CCOCC3)CCOCC2)cc1 | i | 0.35 | -7.5%
CCC(O)CNc1nc(-n2nc(C)cc2C)nc2sc3c(c12)CC(C)(C)OC3 (stereo unspecified) | i | . | 2.7%
COc1cc2nc(SCC(=O)NCCc3ccccc3)n(Cc3ccco3)c(=O)c2cc1OC | i | 0.61 | 0.9%
Cc1cc(C)nc(N(C#N)CCOc2ccc(Cl)cc2)n1 | i | . | 0.4%
Cc1cc(=O)[nH]c(Cc2ccc(OC(C)C)cc2)n1 | i | -0.49 | 3.6%
CSc1ccc(S(=O)(=O)Nc2c(C)cccc2C)cc1 | i | -1.3 | -0.1%
CCOC(=O)N1CCN(C(=O)Cc2ccc(-n3c(=S)[nH]c4ccccc4c3=O)cc2)CC1 | i | -0.48 | -4.0%
COc1ccc(OC)c(/C=N/N(C)c2ccccc2)c1 | i | . | 2.7%
COc1ccc(NC(=O)CN2CCN(C(=O)c3ccco3)CC2)c(OC)c1 | i | . | 4.1%
CCCn1c(/N=C/c2cc(OC)ccc2O)nc2ccccc21 | i | 0.17 | -2.6%
CC(C)c1ccccc1NC(=O)c1ccco1 | i | -0.93 | -4.6%
Cc1ccc(C(=O)OCC(=O)Nc2ccc3c(c2)OCO3)o1 | i | 0.53 | 6.0%
CC(C)c1nc(SCC(=O)Nc2cccc(C(F)(F)F)c2)c2c(=O)n(C)c(=O)n(C)c2n1 | i | -1.1 | -0.8%
O=C(COc1cc(Cl)c(Cl)cc1Cl)Nc1ccncc1 | i | -0.68 | -5.8%
OCCCN1c2ccccc2Nc2nnc(-c3ccccc3)cc21 | i | -0.06 | 11%
CCC(C)(C)n1nnnc1CN1CCC(c2nc3ccc(C)cc3[nH]2)CC1 | i | 0.08 | 1.3%
CCOC(=O)Cc1cc(=O)[nH]c(Nc2nc3ccccc3o2)n1 | i | 1.8 | -6.0%
CCn1ncc(C2=NOC(C(=O)N3CCC(C(N)=O)CC3)C2)c1C (stereo unspecified) | i | 1.7 | -4.6%
CCOC(=O)c1c(C)n(CC(O)c2ccccc2)c2ccc(O)cc12 (stereo unspecified) | i | 0.73 | 3.2%
COc1ccccc1CCN1C(=S)NC(C)(C)CC1(C)O (stereo unspecified) | i | . | -4.0%
O=C(Nc1ccc(Cl)cc1)NC1CCCCC1Cc1ccco1 (stereo unspecified) | i | . | 4.5%
COc1cc(OC)c(C2Oc3nc(SC)nnc3-c3ccccc3N2C(C)=O)cc1OC (stereo unspecified) | i | -0.65 | -2.3%
CCn1nc(C(=O)N2CCc3ccccc3C2)c2ccccc2c1=O | i | -0.19 | -2.0%
Cc1cccn2c(=O)c(C=Nc3c(C)n(C)n(-c4ccccc4)c3=O)c(N3CCCC3)nc12 | i | -0.45 | -3.8%
O=C(CN1CCN(c2ccccn2)CC1)NCc1cccs1 | i | -0.9 | -2.3%
CCCn1c(SCC(=O)Nc2ccc3c(c2)OCCO3)nnc1-c1ccco1 | i | -3.9* | -1.4%
O=C1C2Sc3[nH]c(=O)sc3C(c3ccccc3)C2C(=O)N1c1ccc(Cl)cc1 (stereo unspecified) | i | . | -0.3%
CC1(C)NC(=O)N(CC(=O)OCC(=O)Nc2cccc(F)c2)C1=O | i | . | 4.5%
COc1cccc(N(C(=O)c2cnccn2)C(C(=O)NC2CCCCC2)c2ccc(Cl)cc2)c1 (stereo unspecified) | i | . | 4.1%
COc1ccc(-c2nc(N)ncc2Oc2ccccc2Br)c(O)c1 | i | -1.1 | -15%
O=C(Oc1ccc(-c2ccccc2)cc1)N1CCOCC1 | i | 0.09 | 3.2%
Cc1cc(C(F)F)n2ncc(C(=O)NCc3ccccc3C(F)(F)F)c2n1 | i | -1 | -9.3%
O=C(c1ccc2c(c1)OCO2)N(c1ccccc1)C1C=CS(=O)(=O)C1 (stereo unspecified) | i | 0.28 | 3.1%
Cc1ccc(OCC(=O)NCCN2CCCC2)cc1 | i | 0.58 | 3.9%
CCOC(=O)C1C(=O)OC2(CCCCC2)C1C(=O)OCC (stereo unspecified) | i | . | 2.5%
COc1cccc(C=NCCNC(=O)c2nonc2N)c1O | i | 0.65 | 4.1%

# An excerpt from above in order of molar mass, falling:
structure | MT1-MMP reporter | WNV NS2B-NS3 inh | Hsc70
CC(C)c1nc(SCC(=O)Nc2cccc(C(F)(F)F)c2)c2c(=O)n(C)c(=O)n(C)c2n1 | i | -1.1 | -0.8%
Cc1cccn2c(=O)c(C=Nc3c(C)n(C)n(-c4ccccc4)c3=O)c(N3CCCC3)nc12 | i | -0.45 | -3.8%
O=C(c1ccc2c(c1)OCO2)N(c1ccccc1)C1C=CS(=O)(=O)C1 (stereo unspecified) | i | 0.28 | 3.1%
CCCCC1=NN(C(=O)c2cocc2C)C(O)(C(F)(F)F)C1 (stereo unspecified) | i | . | 1.7%
O=C(Oc1ccc(-c2ccccc2)cc1)N1CCOCC1 | i | 0.09 | 3.2%
Cc1sc2ncnc(N3CCC(C)CC3)c2c1C | i | . | -1.5%

# Going on with the list.
structure | MT1-MMP reporter | WNV NS2B-NS3 inh | Hsc70
Cn1c(Cc2ccccc2)nnc1SCC(=O)N1CCCCC1 | i | . | -0.2%
CCCn1nc(Oc2nc(NCC)nc(NCC)n2)ccc1=O | i | . | -1.8%
Cn1c(=O)c2c(nc(N3CCOCC3)n2CCNC2=NCCC2)n(C)c1=O | i | . | 1.3%
CCOC(=O)CNc1c(-c2ccc(O)cc2)nc2ccccn12 | i | 1.2 | -2.5%
COCc1c(Br)c(C)nc(OCC(=O)O)c1C#N | i | -0.76 | 9.0%
O=C1NC(c2ccccc2)(C(F)(F)F)SC2=CCCCCN12 (stereo unspecified) | i | -0.25 | 1.6%
CCOC(=O)N1CCN(C(=O)c2cc(Cl)c(Cl)cc2C(=O)O)CC1 | i | 0.93 | -3.0%
CCN(CC)c1ccc2c(c1)CCCN2 | i | -0.39 | 6.2%
CCCCOc1ccc(C(=O)Nc2ccncc2)cc1 | i | -0.87 | 8.2%
CC(=O)c1ccc(N2CCN(c3ncc(C(F)(F)F)cc3Cl)CC2)cc1 | i | . | 0.3%
COc1ccc(S(=O)(=O)NCCCCNS(=O)(=O)c2ccc(OC)cc2)cc1 | i | 0.36 | -3.8%
CCc1nnc(NC(=O)[C@@H]2CCCN2S(=O)(=O)c2ccc3c(c2)OCCO3)s1 | i | . | -1.3%
CCN(CC)CCCNc1nnc(C)c(=O)[nH]1 | i | -1.4 | 7.1%
Fc1ccc(NCc2nnc(SCc3nnc(-c4ccccc4)o3)n2CC2CCCO2)cc1 (stereo unspecified) | i | 1.4 | 2.1%
Cc1cc(C)cc(Nc2cc(C)nc3nc(C)nn23)c1 | i | 0.77 | 4.9%
CN1C(=O)C(O)(CC(=O)c2ccc(F)cc2)c2cc(Br)ccc21 (stereo unspecified) | i | -0.6 | -0.9%
O=C1NC(=O)/C(=C\c2ccc(Sc3ccc(Cl)cc3)o2)N1 | i | . | 0.1%
CCOC(=O)N1CCN(C(=O)C2CCCN(S(C)(=O)=O)C2)CC1 (stereo unspecified) | i | 0.84 | -5.3%
CCn1cc(C(=O)NCCc2ccccc2)c(=O)c2cc(F)c(N3CCN(C)CC3)cc21 | i | -0.85 | -11%
COc1ccccc1NC(=O)COc1ccc(/C=N/n2cnnc2)cc1OC | i | 0.81 | -1.6%
CCCOc1ccc(NC(=O)C2CC(=O)N(C(C)C)C2)cc1 (stereo unspecified) | i | 0.47 | -2.5%
CCOc1ccc(N(CC(=O)NCc2ccccc2)S(C)(=O)=O)cc1 | i | 0.68 | 4.9%
COc1ccccc1NC(=O)CSc1nnc(-c2ccco2)o1 | i | 0.34 | -5.6%
O=C1NCCN1C(=O)N(c1ccccc1)c1ccccc1 | i | -0.43 | -1.9%
O=S(=O)(Nc1ccc(O)c(CN2CCCCC2)c1)c1ccccc1 | i | 0.7 | 0.2%
CCc1ccc(NC(=O)CSc2nc3n[nH]c(C)c3c(=N)n2-c2cccc(OC)c2)cc1 | i | . | 0.3%
CCN1CCN(CCNC(=O)c2cn(Cc3ccccc3F)nn2)CC1 | i | -0.04 | -2.8%
Cc1cccc(S(=O)(=O)c2c(N)n(/N=C/c3ccccc3)c3nc4ccccc4nc23)c1 | i | . | 2.6%
COc1ccc(S(=O)(=O)N2CCC(C(=O)NCC3CCCO3)CC2)cc1C (stereo unspecified) | i | . | 0.2%
c1ccc(CNn2c(N3CCOCC3)nc3ccccc32)cc1 | i | -0.15 | -8.6%
COc1ccc(NC(=O)Nc2ccccc2C(=O)N2CCCC2)cc1 | i | 0.93 | 3.1%
CC(C)(C)n1nnnc1C(c1ccncc1)N1CCN(C2CCCCC2)CC1 (stereo unspecified) | i | 1.3 | 2.2%
O=C(CSc1nnc(-c2ccco2)n1Cc1ccco1)NCc1ccccc1 | i | . | -1.5%
CCOC(=O)c1c(C)oc2cc(Br)c(OC(=O)N3CCOCC3)cc12 | i | -1.5 | 6.1%
O=C(CSc1nnnn1C1CCCCC1)NCc1cccc(C(=O)O)c1 | i | 1 | 1.0%
CCOCCc1nnc(N)s1 | i | . | 7.1%
CCC(C)NC(=O)C(Cc1ccccc1)NS(=O)(=O)c1cccc2nsnc12 (stereo unspecified) | i | 1.9 | 0.5%
Cc1cc(N=Cc2c(O)ccc3ccccc23)no1 | i | 0.67 | -3.3%
COc1cc(C2/C(=C(\O)c3ccc4c(c3)CC(C)O4)C(=O)C(=O)N2CCCn2ccnc2)ccc1O (stereo unspecified) | i | -1.2 | -6.4%
COc1ccccc1C(c1nnnn1Cc1ccccc1)N1CCN(C2CCCC2)CC1 (stereo unspecified) | i | . | -7.3%
Nc1ccc2nc(-c3ccccc3)sc2c1 | 1.9µM* | . | 5.3%
COc1ccccc1Nc1cc(C(=O)NCCCN2CCOCC2)c2ccccc2n1 | i | -0.23 | 6.9%
CCC(C)[C@H](N)c1nnc(SCC(=O)Nc2cccc(Cl)c2)o1 (stereo partly specified) | i | -1.3 | 4.9%
COc1ccc2[nH]c3c(=O)n(CCCCC(=O)NCCN4CCCC4)c(=S)[nH]c3c2c1 | i | -0.25 | 3.1%
COc1ccccc1OCCCn1c(=O)oc2ccccc21 | i | 0.19 | -4.1%
COc1ccccc1N1CCN(C(=O)c2c(-c3c(Cl)cccc3Cl)noc2C)CC1 | i | -0.44 | -1.7%
Cn1c(=O)oc2cc(S(=O)(=O)Nc3ccc4c(c3)OCCO4)ccc21 | i | -1.1 | -0.6%
O=C(NCc1ccc2c(c1)OCO2)C1CCN(c2ccc(S(=O)(=O)N3CCCC3)cc2)CC1 | i | 2.6 | 0.5%
O=S1(=O)CC=C(CSc2nc3ccccc3[nH]2)C1 | i | 0.93 | -4.3%

# Outcome played no part in choosing rows; 0.77% or so of the library scored in one or more.
